Screening data: PubChem, National Center for Advancing Translational Sciences (NCATS)
Six1-Eya2 inh – Six1/Eya2 interaction inhibition. activity change, % (concentration not given with the values). 0.56% of 360,000 active. AID 651725. AlphaScreen GST-Six1/His-Eya2 binding, biochemical; active compounds read low; control for the full effect not named in the record; in the data active = activity change below about -65%; inconclusive = about -30% to -65%; inactive = above about -30%; further: on the % scale 0 is the no-effect control and ±100 the full control effect
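GST-Six1 + His-Eya2 (5X stock: 250/500 nM); Tris pH 8.0, 300 mM NaCl, 0.05% BSA, 0.02% Tween 20; GSH donor/Ni acceptor beads; 1 h 37 °C dark; AlphaScreen readout.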
D2 PAM – potentiates the human D2 dopamine receptor allosterically | P14416 | DiscoveRx D2 beta-arrestin cells, luminescence, 90 min; 100% = 57 uM dopamine signal | potentiation, % (no concentration beside the values) | 0.23% of 360,000 active | AID 624464; active = potentiation of 50% or more; inconclusive = 30% to 50%; inactive = 30% or less;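 further: compound concentration not given in the record; tested on top of an EC20 dose of dopamine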
Target sequence (P14416 whole entry, looked up): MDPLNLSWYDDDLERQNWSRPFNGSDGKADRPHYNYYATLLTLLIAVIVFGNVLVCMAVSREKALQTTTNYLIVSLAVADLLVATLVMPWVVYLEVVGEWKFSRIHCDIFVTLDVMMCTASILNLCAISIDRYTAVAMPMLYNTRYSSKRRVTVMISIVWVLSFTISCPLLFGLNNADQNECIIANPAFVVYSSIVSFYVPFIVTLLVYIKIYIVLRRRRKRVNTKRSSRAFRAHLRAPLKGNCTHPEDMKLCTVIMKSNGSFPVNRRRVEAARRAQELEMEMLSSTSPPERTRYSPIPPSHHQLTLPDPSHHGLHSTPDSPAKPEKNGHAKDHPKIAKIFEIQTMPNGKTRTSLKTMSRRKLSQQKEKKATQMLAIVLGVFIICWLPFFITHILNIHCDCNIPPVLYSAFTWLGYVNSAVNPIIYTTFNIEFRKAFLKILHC
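PathHunter D2 cells, attached overnight at 37 deg C, received compound in DMSO plus dopamine at EC20 (50 nM final) for 90 min at 37 deg C. Beta-arrestin recruitment was read as luminescence after 1 h with detection reagent at ambient temperature.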
CtBP-E1A blk – inhibitors of CtBP/E1A interaction; AlphaScreen GST-E1A/His-CtBP binding, 1536-well; active compounds read low; control for the full effect not named in the record; activity change, % (no concentration beside the values); 0.49% of 340,000 active; AID 651724; in the data active means activity change below about -65%; inconclusive means about -30% to -65%; inactive means above about -30%; further: on the % scale 0 is the no-effect control and ±100 the full control effect
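Homogeneous bead-based format: GST-tagged E1A captured on glutathione donor beads, His-tagged CtBP on nickel acceptor beads; compounds precede bead addition by 2 h at 37 °C.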
TRPV1 potentiator – human TRPV1 potentiation; Q8NER1; TRPV1-expressing cells, Fluo-8 calcium influx, capsaicin EC20 potentiation; host cell line not named in the record; control for the full effect not named in the record; potentiation, % at 8.33 µM; 0.02% of 320,000 active; active means potentiation above 80%; inconclusive means 30% to 80%; inactive means below 30%; further: 0% is about no effect
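TRPV1-expressing cells were cultured overnight at 35.5C and loaded with Fluo-8 calcium dye for 40 to 90 min at room temperature. After a 10 s baseline, compound was added and calcium influx was read kinetically for 3 min (ex 480/em 520 nm).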
TRPML1 blocker – inhibitors of human TRPML1 channel. 0.02% of 390,000 active. activity change, negative = inhibition, % (concentration not given with the values). Q9GZU1. TRPML1-inducible cells, Ca2+ dye fluorescence, FDSS; active compounds read low; inhibition of EC80 agonist-evoked calcium signal. AID 624415; in the data active means activity change below about -50%; inconclusive means about -30% to -50%; inactive means above about -30%;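 further: stimulus is agonist 54-4 at its EC80 concentration; on the % scale 0 is the no-effect control and ±100 the full control effect; the text of the record puts the active cut at -80%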
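Calcium fluorescence in TRPML1-DL cells induced overnight with Tet: a 110 s read after compound pin addition, then a 110 s antagonist read after challenge with 54-4 at 4 uM final (EC80).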
TRPML1 agonist – activates the human TRPML1 channel | AID 624414 | Q9GZU1 | activation, % (concentration not given with the values) | 0.12% of 410,000 active | TRPML1-expressing cells, Ca2+ dye fluorescence, FDSS; host cell line not named in the record; reference of the full effect not given here; in the data active = activation above about 50%; inconclusive = about 30% to 50%; inactive = below about 30%; further: 0% is about no effect; the text of the record puts the active cut at 80%
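Agonist activity was taken from a 110 s kinetic Ca2+ dye read on the FDSS after pinning compounds onto TRPML1-DL cells. The cells were seeded at 1,500/well with Tet inducer, incubated about 16 h, then dye-loaded at room temperature.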
Numbers without * were called inactive; nt = no result given.

The first 2 entries, to show the layout:
1) O=C(NC(Cc1ccc(O)cc1)C(=O)O)c1ccco1 (configuration not stated)
2) COc1ccc(-c2sc3ccc(N4CCOCC4)cc3c2C#Cc2ccsc2)cc1

assay / entry | 1 | 2
TRPV1 potentiator | -10 | nt
CtBP-E1A blk | -6 | 14
D2 PAM | -5 | -2
TRPML1 agonist | 0.2 | -0.1
TRPML1 blocker | -13 | 73
Six1-Eya2 inh | 3 | 31

The whole of this part (from the top)
1) O=C(NC(Cc1ccc(O)cc1)C(=O)O)c1ccco1 (configuration not stated)
2) COc1ccc(-c2sc3ccc(N4CCOCC4)cc3c2C#Cc2ccsc2)cc1
3) N#Cc1ccccc1S(=O)(=O)Nc1ccc2c(c1)C(=O)OC2
4) CCCc1cc2c(cc1NC(=O)Cc1ccccc1)OCO2
5) COc1ccc(CCNCC(O)COc2c(C)cccc2C)cc1OC (configuration not stated)
6) COc1ccc(OC)c(S(=O)(=O)Nc2ccccc2C(=O)N2CCCCC2)c1
7) O=C(Cc1ccc(Cl)cc1)NCC(=O)N1CCCCC1
8) COc1cc2c(cc1OC)CN(S(=O)(=O)c1ccc3c(c1)OCCO3)CC2
9) Cc1nn(C)c(C)c1NC(=O)COc1ccccc1C#N
10) CC(C)(C)c1cc(CCC(=O)NCc2ccncc2)cc(C(C)(C)C)c1O

assay / entry | 1 | 2 | 3 | 4 | 5 | 6 | 7 | 8 | 9 | 10
TRPV1 potentiator | -10 | nt | 8 | nt | 5 | -13 | 23 | nt | nt | -12
CtBP-E1A blk | -6 | 14 | nt | -19 | -16 | 0 | -6 | -12 | nt | 6
D2 PAM | -5 | -2 | -16 | -2 | -13 | -3 | -3 | 2 | 0 | 4
TRPML1 agonist | 0.2 | -0.1 | -0.5 | 1.9 | -0.4 | -0.4 | -0.1 | 0.1 | 0.3 | -0.4
TRPML1 blocker | -13 | 73 | -8 | -2 | -6 | 0 | 23 | 2 | -6 | -4
Six1-Eya2 inh | 3 | 31 | -1 | -9 | -1 | 13 | 17 | -4 | 6 | 7

Part of the list above in order of molecular weight, falling:
6) COc1ccc(OC)c(S(=O)(=O)Nc2ccccc2C(=O)N2CCCCC2)c1
10) CC(C)(C)c1cc(CCC(=O)NCc2ccncc2)cc(C(C)(C)C)c1O
5) COc1ccc(CCNCC(O)COc2c(C)cccc2C)cc1OC (configuration not stated)
7) O=C(Cc1ccc(Cl)cc1)NCC(=O)N1CCCCC1

assay / entry | 6 | 10 | 5 | 7
TRPV1 potentiator | -13 | -12 | 5 | 23
CtBP-E1A blk | 0 | 6 | -16 | -6
D2 PAM | -3 | 4 | -13 | -3
TRPML1 agonist | -0.4 | -0.4 | -0.4 | -0.1
TRPML1 blocker | 0 | -4 | -6 | 23
Six1-Eya2 inh | 13 | 7 | -1 | 17

(list continues)
11) CCc1nnc(NC(=O)[C@@H](NC(=O)c2ccc(C(C)(C)C)cc2)C(C)C)s1
12) COc1cc(NC(=O)c2cc(C)nc3ccccc23)cc(OC)c1
13) Cc1cc(C)cc(NC(=S)N2CCN(C(=O)c3ccco3)CC2)c1
14) CC1(C)CC(NC(=O)CCc2ccccc2)CC(C)(C)N1
15) C=CCc1cccc(/C=N/c2ncn[nH]2)c1O
16) CC(O)(c1ccccc1)c1nc(-c2csc3ccccc23)cs1 (configuration not stated)
17) CCn1c(CC(=O)Nc2ccccc2Cl)nnc1SCC(=O)NC1CCCC1
18) Cc1sc(NC(=O)c2ccco2)c(C(c2ccncc2)N2CCOCC2)c1C (configuration not stated)
19) O=c1cc(CN2CCN(Cc3ccc(F)cc3)C(CCO)C2)[nH]c2ccccc12 (configuration not stated)
20) CCC1=[N+](CC(=O)c2ccc(Br)cc2)CCn2c(C)ccc21

assay / entry | 11 | 12 | 13 | 14 | 15 | 16 | 17 | 18 | 19 | 20
TRPV1 potentiator | -5 | 4 | -5 | 3 | 9 | nt | 1 | 1 | 1 | 7
CtBP-E1A blk | -12 | -14 | 3 | -6 | -3 | 5 | 0 | -4 | 0 | nt
D2 PAM | -36 | -5 | -4 | -4 | 4 | -7 | -8 | 10 | -27 | -23
TRPML1 agonist | 0.4 | 0.2 | -0.2 | 0.1 | 1.3 | 0.9 | 0.3 | 0.7 | 1.0 | -0.5
TRPML1 blocker | 9 | 5 | 7 | -5 | -6 | nt | 1 | 11 | 14 | -5
Six1-Eya2 inh | -8 | -10 | 1 | -7 | -4 | 6 | -4 | -11 | -2 | -4

Compound profiles, as listed above. Order of screens: TRPV1 potentiator	CtBP-E1A blk	D2 PAM	TRPML1 agonist	TRPML1 blocker	Six1-Eya2 inh
CC(C)(C)c1cc(CCC(=O)NCc2ccncc2)cc(C(C)(C)C)c1O is listed as -12	6	4	-0.4	-4	7
COc1cc(NC(=O)c2cc(C)nc3ccccc23)cc(OC)c1 is listed as 4	-14	-5	0.2	5	-10
COc1ccc(CCNCC(O)COc2c(C)cccc2C)cc1OC (configuration not stated) is listed as 5	-16	-13	-0.4	-6	-1
COc1cc2c(cc1OC)CN(S(=O)(=O)c1ccc3c(c1)OCCO3)CC2 is listed as nt	-12	2	0.1	2	-4
Cc1cc(C)cc(NC(=S)N2CCN(C(=O)c3ccco3)CC2)c1 is listed as -5	3	-4	-0.2	7	1

Later entries:
21) O=C(Nc1cccc(C(=O)Nc2cccc(C(F)(F)F)c2)c1)c1ccc(=O)[nH]c1
22) Cn1ccc(C(=O)NC(=S)Nc2ccc([N+](=O)[O-])cc2O)n1
23) O=C(NCc1nc(-c2ccc(C(F)(F)F)cc2)no1)Nc1cc(Cl)cc(Cl)c1
24) CCCCn1c(SCC(=O)Nc2cc(C)on2)nnc1-c1ccncc1
25) O=C(CSCC(=O)N1CCCCC1)Nc1nc(-c2ccc(Cl)s2)cs1
26) Cc1c(C)n(Cc2ccccc2)c2ccc(C(=O)NCCCN3CCOCC3)cc12
27) COC(c1ccccc1)c1c(-c2ccccc2)nn(C)c1Cl (configuration not stated)
28) Brc1ccc(-n2cnc(-c3ccccc3)c2)cc1
29) Cc1ccc(OCCCC(=O)Nc2ccc3c(c2)OCO3)cc1
30) Cc1nn(-c2ccccc2)c2c1P(=O)(O)/C(=C1\N(C)c3ccccc3C1(C)C)C=N2
31) COc1ccc(NC(=O)COC(=O)C2CCN(S(=O)(=O)c3ccccc3)CC2)cc1Cl
32) Cc1noc(C)c1NC(=O)Nc1ccc2c(c1)C(=O)N([C@H](C)CO)C[C@H](C)[C@H](CN(C)C(=O)NC1CCCCC1)OCCCC[C@@H](C)O2
33) NNc1ccccc1C(F)(F)F

assay / entry | 21 | 22 | 23 | 24 | 25 | 26 | 27 | 28 | 29 | 30 | 31 | 32 | 33
TRPV1 potentiator | 8 | 2 | 6 | 28 | nt | -17 | -20 | 19 | -16 | -1 | 0 | nt | 2
CtBP-E1A blk | 21 | -6 | 5 | 1 | -16 | -16 | -6 | -16 | -6 | 14 | -3 | -2 | 4
D2 PAM | -1 | -17 | -5 | -5 | -1 | -31 | -12 | -2 | -6 | -36 | -16 | -3 | -29
TRPML1 agonist | -0.8 | 0.1 | 2.3 | -0.6 | 1.9 | -0.5 | -0.3 | 1.3 | 1.2 | 0.2 | 0.1 | -0.3 | -0.7
TRPML1 blocker | -7 | -13 | 14 | 6 | 15 | 18 | -9 | 4 | 25 | -2 | 5 | 5 | -3
Six1-Eya2 inh | -1 | -28 | 14 | 5 | -9 | -15 | 1 | -24 | 4 | 7 | 0 | 1 | 1

The order is random; overall some 0.95% were active at least once.
